Screening results deposited in PubChem by Sanford-Burnham Center for Chemical Genomics.
SENP8 block-1: inhibitors of human SENP8 protease. Q96LD8. hit rate 1.2% among 330,000. AID 2540. inhibition, % at 10 µM. purified SENP8, Z-RLRGG-aminoluciferin cleavage, luminescence; in the data active means inhibition above about 50%
Target sequence (Q96LD8 whole entry, looked up): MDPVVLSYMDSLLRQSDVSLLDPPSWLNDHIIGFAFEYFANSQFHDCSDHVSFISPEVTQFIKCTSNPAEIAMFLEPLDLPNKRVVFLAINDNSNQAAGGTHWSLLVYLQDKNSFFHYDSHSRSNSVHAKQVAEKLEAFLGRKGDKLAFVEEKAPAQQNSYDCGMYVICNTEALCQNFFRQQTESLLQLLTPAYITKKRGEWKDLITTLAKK
SENP8 block-2: blocks human SENP8 cleavage of Nedd8 substrate; inhibition, % at 20 µM; hit rate 0.64% among 360,000; recombinant SENP8, Nedd8 substrate fluorescence; Q96LD8; AID 602440; in the data active means inhibition mostly above about 40%, no sharp cut-off; inactive means mostly below about 27%
UBC13 inh: inhibitors of human UBC13 polyubiquitin chain formation. P61088. AID 485273. TR-FRET. inhibition, % at 20 µM. hit rate 0.47% among 330,000; in the data active means inhibition above about 45%, passing the limit was not always enough; inconclusive means no clear call, values can overlap the other calls
Target sequence (P61088 whole entry, looked up): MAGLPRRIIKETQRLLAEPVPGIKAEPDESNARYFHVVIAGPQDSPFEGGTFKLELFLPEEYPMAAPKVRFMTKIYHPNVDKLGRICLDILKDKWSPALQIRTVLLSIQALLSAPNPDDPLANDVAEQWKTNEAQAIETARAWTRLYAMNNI
SENP1 FRET inh: blocks the human SENP1 SUMO protease catalytic domain; recombinant SENP1 catalytic domain, CyPet-SUMO1-YPet FRET cleavage; inhibition, % at 10 µM; hit rate 0.21% among 360,000;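 active means inhibition at least 30% at 10 µM, raw YFP signal under a set limit, fluorescence ratio 0.5 to 1.5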;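 further: 0% = enzyme with DMSO and 100% = no enzyme wells; some results filed as inactive read as strong as hits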
Target sequence (Q9P0U3 419-644 limits assumed): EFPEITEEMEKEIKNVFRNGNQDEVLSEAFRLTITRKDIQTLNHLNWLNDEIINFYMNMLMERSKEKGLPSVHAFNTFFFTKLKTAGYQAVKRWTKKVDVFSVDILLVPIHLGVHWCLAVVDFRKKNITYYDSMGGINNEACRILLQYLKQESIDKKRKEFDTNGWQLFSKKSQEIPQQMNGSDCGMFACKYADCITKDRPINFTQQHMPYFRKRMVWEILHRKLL
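Test system: hSENP1 catalytic domain, recombinant; Amount: 20 pM final SENP1 enzyme; Medium: Tris pH 8 buffer plus EDTA, NaCl, BME, BSA, NP40, catalase; Schedule: 50 min enzyme reaction, room temperature, light-protected; Technique: FRET fluorescence in CFP and YFP emission channels; Controls: no-enzyme wells low, DMSO-plus-enzyme wells high control.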
APOBEC3G inh: blocks human APOBEC3G single-stranded DNA deamination; Q9HC16; recombinant A3G, ssDNA deamination FAM/TAMRA fluorescence; inhibition, % at 20 µM; hit rate 0.28% among 330,000;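 active means inhibition of at least 40% at 20 µM, with no more than 30% in the related APOBEC3A deaminase screen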;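 further: plate controls were DMSO wells with A3G for no effect and wells lacking A3G enzyme for full effect; some compounds called inactive have numbers as strong as hits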
SENP6 block: inhibitors of human SENP6 protease. Q9GZR1. Recombinant SENP6 catalytic domain, aminoluciferin luminescence. inhibition, % at 10 µM. hit rate 1.8% among 330,000. AID 2599;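 active means inhibition above about 50% at the single tested dose, limit read from the data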;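 further: plate controls were DMSO wells with enzyme for no effect and DMSO wells lacking enzyme for full effect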
Target sequence (Q9GZR1 628-1112 limits assumed): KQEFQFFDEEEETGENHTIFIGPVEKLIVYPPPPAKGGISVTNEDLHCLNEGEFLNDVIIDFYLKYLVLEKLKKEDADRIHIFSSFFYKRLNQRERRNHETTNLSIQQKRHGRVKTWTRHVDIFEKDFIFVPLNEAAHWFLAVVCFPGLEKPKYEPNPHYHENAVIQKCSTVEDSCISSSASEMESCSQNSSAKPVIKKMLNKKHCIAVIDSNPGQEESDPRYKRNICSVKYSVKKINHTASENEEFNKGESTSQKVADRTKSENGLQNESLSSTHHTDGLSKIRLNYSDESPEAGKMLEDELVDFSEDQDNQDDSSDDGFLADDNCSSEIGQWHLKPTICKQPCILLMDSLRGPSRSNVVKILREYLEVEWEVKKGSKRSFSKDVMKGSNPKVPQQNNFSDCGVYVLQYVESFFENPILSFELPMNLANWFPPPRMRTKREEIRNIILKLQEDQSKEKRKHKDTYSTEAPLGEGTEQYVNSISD
SENP7 block: blocks the human protease SENP7; Q9BQF6; recombinant SENP7, Z-RLRGG-aminoluciferin luminescence, 40 min; inhibition, % at 5 µM; hit rate 1.5% among 330,000; AID 434973;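 active means inhibition above about 50% at the single test dose, limit read from the data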;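 further: plate controls were DMSO with enzyme for no effect and no enzyme buffer wells for full effect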
* hit, by the source's call. Only part of the results is shown; rates above refer to the full screens.

Screening COc1ccc(OC)c(N=Cc2c(O)[nH]c3ccccc23)c1 returned SENP8 block-1 -15, SENP8 block-2 -56, UBC13 inh 0, SENP1 FRET inh -16, APOBEC3G inh -6, SENP6 block -24 and SENP7 block 4.
`Cn1ccnc1-c1nc2ccccc2[nH]c1=O` gave SENP8 block-1 -2, SENP8 block-2 -82, UBC13 inh -4, SENP1 FRET inh -27, APOBEC3G inh -5, SENP6 block -9 and SENP7 block -6.
`CC1CC=C2C(C#N)=C(N)C(C#N)(C#N)C(c3cccs3)C2C1` (stereo unspecified) gave SENP8 block-1 -2, SENP8 block-2 -88, UBC13 inh -8, SENP1 FRET inh -24, APOBEC3G inh -4, SENP6 block -6 and SENP7 block 5.
For COc1ccc(CCn2c(-c3ccco3)nc3nc4ccccc4nc32)cc1 the results were SENP8 block-1 -11, SENP8 block-2 inactive, UBC13 inh -5, SENP1 FRET inh -33, APOBEC3G inh -5, SENP6 block -6 and SENP7 block -7.
CC(=O)Nc1cc2ccc(OC(C)=O)cc2oc1=O was read as SENP8 block-1 8, SENP8 block-2 -424, UBC13 inh 14, SENP1 FRET inh -37, APOBEC3G inh -9, SENP6 block -13 and SENP7 block 3.
For CC1(C)CC(=O)C2=C(C1)N(CCN1CCOCC1)C1=C(C(=O)CC(C)(C)C1)C2c1ccc(Cl)cc1 the results were SENP8 block-1 -1, SENP8 block-2 -423, UBC13 inh -4, SENP1 FRET inh -36, APOBEC3G inh -7, SENP6 block 0 and SENP7 block 7.
CNC(=O)c1cc2c(=O)n3cccc(C)c3nc2n(C(C)C)c1=N was read as SENP8 block-1 -1, SENP8 block-2 -288, UBC13 inh -3, SENP1 FRET inh -18, APOBEC3G inh -3, SENP6 block -6 and SENP7 block 8.
Screening CCC(c1nnnn1C1CCCC1)N(Cc1cccs1)Cc1cc2cc(C)ccc2[nH]c1=O (stereo unspecified) returned SENP8 block-1 -4, SENP8 block-2 -195, UBC13 inh 3, SENP1 FRET inh -6, APOBEC3G inh -5, SENP6 block 18 and SENP7 block 1.
`O=c1[nH]c2cc3c(cc2cc1CN(Cc1nnnn1CC1CCCO1)C1CCCCC1)OCO3` (stereo unspecified) gave SENP8 block-1 9, SENP8 block-2 -493, UBC13 inh -3, SENP1 FRET inh -19, APOBEC3G inh 2, SENP6 block 8 and SENP7 block 9.
For Cc1ccccc1CS(=O)(=O)CCC(=O)N1CCN(c2ccc(N3CCOCC3)nn2)CC1 the results were SENP8 block-1 -6, SENP8 block-2 -300, UBC13 inh 29, SENP1 FRET inh -26, APOBEC3G inh -5, SENP6 block -10 and SENP7 block -8.

Four records picked at random from the list so far:
`CC1CC=C2C(C#N)=C(N)C(C#N)(C#N)C(c3cccs3)C2C1` (stereo unspecified) gave SENP8 block-1 -2, SENP8 block-2 -88, UBC13 inh -8, SENP1 FRET inh -24, APOBEC3G inh -4, SENP6 block -6 and SENP7 block 5.
`Cn1ccnc1-c1nc2ccccc2[nH]c1=O` gave SENP8 block-1 -2, SENP8 block-2 -82, UBC13 inh -4, SENP1 FRET inh -27, APOBEC3G inh -5, SENP6 block -9 and SENP7 block -6.
For Cc1ccccc1CS(=O)(=O)CCC(=O)N1CCN(c2ccc(N3CCOCC3)nn2)CC1 the results were SENP8 block-1 -6, SENP8 block-2 -300, UBC13 inh 29, SENP1 FRET inh -26, APOBEC3G inh -5, SENP6 block -10 and SENP7 block -8.
Screening CCC(c1nnnn1C1CCCC1)N(Cc1cccs1)Cc1cc2cc(C)ccc2[nH]c1=O (stereo unspecified) returned SENP8 block-1 -4, SENP8 block-2 -195, UBC13 inh 3, SENP1 FRET inh -6, APOBEC3G inh -5, SENP6 block 18 and SENP7 block 1.

Remaining list, next part.
Screening COc1ccc(CNC(=O)c2cc3c(=O)n4ccccc4nc3n(Cc3cccnc3)c2=N)cc1 returned SENP8 block-1 -12, SENP8 block-2 -279, UBC13 inh -15, SENP1 FRET inh -31, APOBEC3G inh -3, SENP6 block -9 and SENP7 block -9.
For CN1CCc2c(sc3c2C(=O)NC(c2cn(Cc4ccccc4)c4ccccc24)N3)C1 (stereo unspecified) the results were SENP8 block-1 -3, SENP8 block-2 -259, UBC13 inh 51*, SENP1 FRET inh -33, APOBEC3G inh -7, SENP6 block -2 and SENP7 block 1.
For Cc1ccsc1C1NC(=O)c2c(sc3c2CCN(C)C3)N1 (stereo unspecified) the results were SENP8 block-1 0, SENP8 block-2 -449, UBC13 inh 9, SENP1 FRET inh -30, APOBEC3G inh -7, SENP6 block 2 and SENP7 block 12.
For CC1CCN(c2nc(-c3ccco3)c3c(c2C#N)CC(C)(C)OC3)CC1 the results were SENP8 block-1 -9, SENP8 block-2 -333, UBC13 inh -22, SENP1 FRET inh -58, APOBEC3G inh -12, SENP6 block 6 and SENP7 block -15.
COc1ccc2nc(SCC(=O)N(C)C3CCCCC3)c(C#N)cc2c1 was read as SENP8 block-1 -1, SENP8 block-2 -101, UBC13 inh 10, SENP1 FRET inh -53, APOBEC3G inh -3, SENP6 block -15 and SENP7 block -8.
Screening Cc1ccc(S(=O)(=O)c2c(N)n(NC(=O)C3CC3)c3nc4ccccc4nc23)cc1 returned SENP8 block-1 6, SENP8 block-2 -257, UBC13 inh 17, SENP1 FRET inh -142, APOBEC3G inh -5, SENP6 block 1 and SENP7 block 0.
C=CCn1c(=O)c(C#N)cc2c(=O)n3ccccc3nc21 was read as SENP8 block-1 -7, SENP8 block-2 -403, UBC13 inh -3, SENP1 FRET inh -27, APOBEC3G inh 1, SENP6 block -22 and SENP7 block -6.
`Cc1ccc(N)cc1-n1c(C)ccc1C` gave SENP8 block-1 4, SENP8 block-2 -157, UBC13 inh 4, SENP1 FRET inh -61, APOBEC3G inh -5, SENP6 block 9 and SENP7 block 1.
`CCOC(=O)c1cc(-c2cc3ccccc3o2)nc2c1c(=O)[nH]c(=O)n2CCOC` gave SENP8 block-1 -1, SENP8 block-2 -498, UBC13 inh 16, SENP1 FRET inh -17, APOBEC3G inh -2, SENP6 block -10 and SENP7 block 1.
COc1ccc(-c2cc(C(F)(F)F)n3nc(C(=O)N4CCCCC4)cc3n2)cc1 was read as SENP8 block-1 3, SENP8 block-2 -298, UBC13 inh 3, SENP1 FRET inh -66, APOBEC3G inh -8, SENP6 block -18 and SENP7 block 6.
For CC(=O)C1=C(C)NC(SCC(=O)c2ccccc2)=C(C#N)C1c1ccco1 (stereo unspecified) the results were SENP8 block-1 -7, UBC13 inh 1, APOBEC3G inh -4, SENP6 block 10 and SENP7 block 9.
`c1ccc2ccccc2c1` gave SENP8 block-1 -3, SENP8 block-2 9, UBC13 inh -1, SENP1 FRET inh 1, APOBEC3G inh -7, SENP6 block -11 and SENP7 block -3.
Screening CCOC(=O)/C=c1/s/c(=C/c2ccccc2OC)c(=O)n1CC(=O)N1CCOCC1 returned SENP8 block-2 -159 and SENP1 FRET inh -86.
COc1ccc(N=c2oc3cc(O)ccc3cc2C(=O)NCC2CCCO2)c(OC)c1 (stereo unspecified) was read as SENP8 block-1 -3, SENP8 block-2 -316, UBC13 inh -20, SENP1 FRET inh -28, APOBEC3G inh -3, SENP6 block 0 and SENP7 block 2.
For COc1ccc2nc(N3CCCC3)c(C#N)cc2c1 the results were SENP8 block-1 6, SENP8 block-2 -346, UBC13 inh 2, SENP1 FRET inh -18, APOBEC3G inh 4, SENP6 block 23 and SENP7 block 8.
For CC(=O)Nc1nc2ccccc2n1CCN1CCOCC1 the results were SENP8 block-1 -16, SENP8 block-2 0, UBC13 inh -4, SENP1 FRET inh -1, APOBEC3G inh -2, SENP6 block -6 and SENP7 block -9.
Screening Cc1ccc2nc3ccc(N4CCCC4)nn3c(=O)c2c1 returned SENP8 block-1 -3, SENP8 block-2 -425, UBC13 inh -14, SENP1 FRET inh -5, APOBEC3G inh 1, SENP6 block -10 and SENP7 block 3.
For COc1ccccc1NC(=O)N1CCc2[nH]c3ccc(Cl)cc3c2C1 the results were SENP8 block-1 3, SENP8 block-2 -21, UBC13 inh 21, SENP1 FRET inh -28, APOBEC3G inh -7, SENP6 block -2 and SENP7 block -2.
Screening Cc1ccc(C2NC(=O)c3c(sc4c3CCN(C)C4)N2)s1 (stereo unspecified) returned SENP8 block-1 0, SENP8 block-2 -283, UBC13 inh -26, SENP1 FRET inh -22, APOBEC3G inh -6, SENP6 block 22 and SENP7 block 2.
`Cc1cccc(S(=O)(=O)C(C#N)c2nc3ccccc3nc2N2CC(C)OC(C)C2)c1` (stereo unspecified) gave SENP8 block-1 5, SENP8 block-2 -142, UBC13 inh 4, SENP1 FRET inh -26, APOBEC3G inh -6, SENP6 block -1 and SENP7 block 2.
Screening COC(=O)C1=C(C)NC2=C(C(=O)CC(C)(C)C2)C1c1cccc(C)n1 (stereo unspecified) returned SENP8 block-1 -4, SENP8 block-2 -266, UBC13 inh 1, SENP1 FRET inh -153, APOBEC3G inh -2, SENP6 block -6 and SENP7 block -2.
For CC(C)OC(=O)c1c(NC(=O)c2cccs2)sc2c1CCCC2 the results were SENP8 block-1 4, SENP8 block-2 -280, UBC13 inh 20, SENP1 FRET inh -1, APOBEC3G inh -4, SENP6 block -9 and SENP7 block -10.
Screening COC(=O)c1c(NC(=O)c2cccs2)sc2c1CCCC2 returned SENP8 block-1 -2, SENP8 block-2 -491, UBC13 inh 12, SENP1 FRET inh -1, APOBEC3G inh 9, SENP6 block -12 and SENP7 block 2.
Screening Cc1n[nH]c(C)c1N1C(=O)c2cccc3c(N4CCCCCC4)ccc(c23)C1=O returned SENP8 block-1 0, SENP8 block-2 2, UBC13 inh -226, SENP1 FRET inh -21, APOBEC3G inh -147, SENP6 block 17 and SENP7 block 8.
`CCc1nnc(NC(=O)CSc2nc3c(cc2C#N)CCC3)s1` gave SENP8 block-1 -3, SENP8 block-2 inactive, UBC13 inh inconclusive, SENP1 FRET inh -19, APOBEC3G inh -1, SENP6 block 4 and SENP7 block 2.
N#CCSc1n[nH]c2nc3c(c(=O)n12)C1(CCCC1)Cc1ccccc1-3 was read as SENP8 block-1 0, SENP8 block-2 -475, UBC13 inh 3, SENP1 FRET inh -119, APOBEC3G inh 0, SENP6 block -7 and SENP7 block 10.
Screening O=C(c1ccco1)N1CCN(C(=O)c2cnn3c(C(F)(F)F)cc(-c4cccs4)nc23)CC1 returned SENP8 block-1 0, SENP8 block-2 -268, UBC13 inh 7, SENP1 FRET inh -48, APOBEC3G inh -9, SENP6 block -28 and SENP7 block 8.
O=C(c1cccs1)c1ccc(-c2cccs2)s1 was read as SENP8 block-1 94*, SENP8 block-2 -376, UBC13 inh inconclusive, SENP1 FRET inh 10, APOBEC3G inh 14, SENP6 block 95* and SENP7 block 94*.
CCOc1ccc2nc3sc(C(=O)N4CCN(C)CC4)c(N)c3cc2c1 was read as SENP8 block-1 -4, SENP8 block-2 -185, UBC13 inh -2, SENP1 FRET inh -29, APOBEC3G inh 6, SENP6 block -2 and SENP7 block 6.
CC(=O)Nc1c(OC(C)=O)ccc2c(C)cc(=O)oc12 was read as SENP8 block-1 5, SENP8 block-2 -427, UBC13 inh 9, SENP1 FRET inh -92, APOBEC3G inh -2, SENP6 block -3 and SENP7 block -4.
`COc1ccc(-c2cc(C(F)(F)F)n3nc(C(=O)NCc4ccco4)cc3n2)cc1` gave SENP8 block-1 3, SENP8 block-2 -275, UBC13 inh 10, SENP1 FRET inh -39, APOBEC3G inh -6, SENP6 block 9 and SENP7 block 3.
Screening O=c1ccc2c(o1)/C(=C/C=C(Cl)Cl)CCC2 returned SENP8 block-1 -2, SENP8 block-2 -468, UBC13 inh -6, SENP1 FRET inh -36, APOBEC3G inh -8, SENP6 block -24 and SENP7 block 1.
For O=C(O)c1cccnc1 the results were SENP8 block-1 11, SENP8 block-2 2, UBC13 inh 8, SENP1 FRET inh 3, APOBEC3G inh -4, SENP6 block -16 and SENP7 block 5.
`CCCCn1c(SCC(=O)Nc2ccc(OC)cc2)nc2ccc(N3CCOCC3)cc2c1=O` gave SENP8 block-1 0, SENP8 block-2 -275, UBC13 inh 11, SENP1 FRET inh -37, APOBEC3G inh -2, SENP6 block 11 and SENP7 block 11.
For c1cn2c(NC3CCCC3)c(-c3ccc(N4CCOCC4)cc3)nc2cn1 the results were SENP8 block-1 12, SENP8 block-2 -388, UBC13 inh 3, SENP1 FRET inh -28, APOBEC3G inh -5, SENP6 block 9 and SENP7 block 4.
